# Sa growth 42C – blocks Staphylococcus aureus growth | S. aureus RN4220 growth, OD600, 20 h, 42 °C; hits give low values | actives 0.53% (n = 170,000) | relative growth, % (test concentration not listed) | AID 720641;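 active = growth at 42 °C up to 50% and 20 or more points under that at 30 °C, or under 10% at both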;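 also: 300 nL library stock went into each well; scaled to the means of positive and negative controls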
# HCMV NEC inh – inhibitors of HCMV UL50-UL53 nuclear egress complex interaction; actives 0.15% (n = 190,000); inhibition, % (concentration not given with the values); HTRF UL50-UL53 interaction, normalized percent inhibition; AID 1918969;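 active = both replicates at 50% or more, plus weaker picks with an unusually low signal ratio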;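 also: stock transfer was 100 nL into about 20 µL; 0% = negative control wells and 100% = wells with untagged competitor protein; inactives centre near -12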
# GIV-Gai inh – GIV-Galpha-i interaction inhibition. Galpha-i3/FITC-GIV peptide fluorescence polarization, 90 min; hits give low values; scaled: aluminum fluoride 0%, vehicle 100%. actives 0.42% (n = 210,000). AID 1224905. percent of control (FP), % (no concentration beside the values). P08753;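 active = replicate mean at 85% of control or lower, very high polarization wells dropped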;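 also: wells of about 15 µL received 100 nL stock; the first replicate is given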
# Target sequence (P08753 whole entry, looked up): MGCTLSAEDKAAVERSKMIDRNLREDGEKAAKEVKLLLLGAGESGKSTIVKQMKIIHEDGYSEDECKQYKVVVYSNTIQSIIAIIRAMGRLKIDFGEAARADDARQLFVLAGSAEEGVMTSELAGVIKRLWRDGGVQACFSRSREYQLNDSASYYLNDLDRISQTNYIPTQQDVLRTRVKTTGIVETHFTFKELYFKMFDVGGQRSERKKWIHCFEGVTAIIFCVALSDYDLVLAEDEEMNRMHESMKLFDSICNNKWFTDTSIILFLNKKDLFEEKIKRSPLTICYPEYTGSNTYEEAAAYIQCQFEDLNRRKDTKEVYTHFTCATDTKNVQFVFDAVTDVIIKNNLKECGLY
# Sa growth 42C second temp – also measured in Sa growth 42C; calls as there; relative growth, %; measured here: growth at 30 °C;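 optical density after 20 h as mean of two plates; 100% = untreated growth and lower means inhibition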
# An asterisk follows results filed as active; x = no result given; & = joins results of further samples.
# The opening 7 records, ahead of the listing:
SMILES,Sa growth 42C,Sa growth 42C second temp,HCMV NEC inh,GIV-Gai inh
Cn1c(=O)n(C)c2cc(Oc3ccccc3)c(NC(=O)Nc3cccc(Cl)c3)cc21,x,x,-20,102
COc1ccccc1NC(=O)N1CCCSc2ccccc21,95,97,-21,x
O=C(O)C1CCC(CNS(=O)(=O)c2ccc(Br)cc2)CC1 (centres undefined),108,97,-3,103
Cc1ccc(CN2C(=O)C(O)(c3c(C)[nH]c4ccccc34)c3cc(Br)ccc32)cc1 (centres undefined),83,70,x,100
N#CC1=C(n2ncnc2-c2ccc3c(c2)OCO3)SC2CCCCCC12 (centres undefined),111,83,-32,105
COC(=O)c1cc(NC(=O)CCc2c(C)nc3c4c(C)cc(C)nc4nn3c2C)cc(C(=O)OC)c1,104,95,-19,110
COc1ccc(-c2cc3ncc(C(=O)c4cc([N+](=O)[O-])ccc4O)cn3n2)cc1,86,59,-54,107

# The whole of this part, from the start:
SMILES,Sa growth 42C,Sa growth 42C second temp,HCMV NEC inh,GIV-Gai inh
Cn1c(=O)n(C)c2cc(Oc3ccccc3)c(NC(=O)Nc3cccc(Cl)c3)cc21,x,x,-20,102
COc1ccccc1NC(=O)N1CCCSc2ccccc21,95,97,-21,x
O=C(O)C1CCC(CNS(=O)(=O)c2ccc(Br)cc2)CC1 (centres undefined),108,97,-3,103
Cc1ccc(CN2C(=O)C(O)(c3c(C)[nH]c4ccccc34)c3cc(Br)ccc32)cc1 (centres undefined),83,70,x,100
N#CC1=C(n2ncnc2-c2ccc3c(c2)OCO3)SC2CCCCCC12 (centres undefined),111,83,-32,105
COC(=O)c1cc(NC(=O)CCc2c(C)nc3c4c(C)cc(C)nc4nn3c2C)cc(C(=O)OC)c1,104,95,-19,110
COc1ccc(-c2cc3ncc(C(=O)c4cc([N+](=O)[O-])ccc4O)cn3n2)cc1,86,59,-54,107
COc1ccc(C(=O)NCCS(=O)(=O)N2CCc3ccccc3C2)cc1OC,97,80,-23,105
Cc1ccc(N2C(=O)c3ccccc3C2C(=O)c2ccc(O)cc2O)cc1 (centres undefined),121,53,-15,x
O=C(NCc1ccc2c(c1)OCO2)c1cc(-c2cccnc2)nc2ccccc12,x,x,-41,107

# 3 of the entries above in order of the Sa growth 42C second temp value, lowest first:
compound	Sa growth 42C	Sa growth 42C second temp	GIV-Gai inh
Cc1ccc(N2C(=O)c3ccccc3C2C(=O)c2ccc(O)cc2O)cc1 (centres undefined)	121	53	x
COc1ccc(C(=O)NCCS(=O)(=O)N2CCc3ccccc3C2)cc1OC	97	80	105
O=C(O)C1CCC(CNS(=O)(=O)c2ccc(Br)cc2)CC1 (centres undefined)	108	97	103

# Remaining list, next part:
SMILES,Sa growth 42C,Sa growth 42C second temp,HCMV NEC inh,GIV-Gai inh
COc1ccc(C(=O)Nc2nonc2C)cc1,x,x,-18,103
O=C(Cn1nc(-c2ccc(Cl)cc2)ccc1=O)NCc1ccco1,107,76,x,108
Nc1c(-c2nc(-c3ccc4c(c3)OCO4)cs2)c2ccccn2c1C(=O)c1ccc(Cl)cc1,111,86,-18,103
O=C(Cn1nnc2ccccc21)Nc1ccccc1Cl,113,84,-16,x
COCCCNC(=O)C(=O)Nc1c2c(nn1-c1cccc(Cl)c1)CSC2,178,76,x,102
CCOc1cc(/C=C2/SC(=Nc3ccccc3)NC2=O)cc(Br)c1O,x,x,-53,276
CC(C)CCNC(=O)c1noc2ncnc(N3CCOCC3)c12,x,x,-28,104
O=C(NC(=O)C1CCCCC1)Nc1ccc(Cl)cc1,90,98,0,x
Cc1cc(Cl)ccc1OC(C)C(=O)N1CCN(c2ccccc2F)CC1 (centres undefined),51,58,x,102
COc1ccc(S(=O)(=O)NCC(c2cccs2)S(=O)(=O)c2ccc(C)cc2)cc1F (centres undefined),112,86,x,99
Cc1ccc(S(=O)(=O)c2nc(S(C)(=O)=O)sc2N(C)Cc2ccccc2)cc1,105,98,2,102
CC1CCN(C(=O)CN(C)S(=O)(=O)c2ccc3nc(-c4ccccc4)[nH]c3c2)CC1,x,x,-6,105
NC(=S)N1CCOCC1,93,91,-8,x
c1ccc(CNc2cc(-c3ccccc3)nc3nncn23)cc1,84,45,x,105
O=C(COc1cccc(-c2nc(-c3ccccc3)no2)c1)Nc1ccc(F)cc1,x,x,21,107
CCc1ccc2oc(-c3ccc(NC(=O)c4cccc5ccccc45)cc3)nc2c1,x,x,-14,94
CCOC(=O)c1ccc(NC(=O)CCCn2c(=O)c3cccn3c3ccccc32)cc1,101,92,-26,100
COc1ccc(Cc2nc3c4c(C)c(C)n(-c5ccccc5Br)c4ncn3n2)cc1,x,x,-23,113
CC(C)NC(=O)c1cnn(C)c1-n1cccc1,79,81,-16,97
COc1cc2c(cc1NC(=O)C(C)Oc1ccccc1)oc1ccccc12 (centres undefined),98,86,5,105

# Entries of single compounds, quoted from the list. Screens in order: Sa growth 42C | Sa growth 42C second temp | HCMV NEC inh | GIV-Gai inh
# CCc1ccc2oc(-c3ccc(NC(=O)c4cccc5ccccc45)cc3)nc2c1 is listed as x | x | -14 | 94
# CC1CCN(C(=O)CN(C)S(=O)(=O)c2ccc3nc(-c4ccccc4)[nH]c3c2)CC1 is listed as x | x | -6 | 105
# COc1ccc(Cc2nc3c4c(C)c(C)n(-c5ccccc5Br)c4ncn3n2)cc1 is listed as x | x | -23 | 113
# NC(=S)N1CCOCC1 is listed as 93 | 91 | -8 | x
# COc1cc2c(cc1NC(=O)C(C)Oc1ccccc1)oc1ccccc12 (centres undefined) is listed as 98 | 86 | 5 | 105

# (continued)
SMILES,Sa growth 42C,Sa growth 42C second temp,HCMV NEC inh,GIV-Gai inh
CCCn1c(=O)c2ccccc2n2c(=S)[nH]nc12,93,92,13&-41,99
Cc1cc(C)c2c(c1)C(Cc1sccc1C)C(=O)N2 (centres undefined),x,x,-15,105
CCN1C(=O)c2cc(C(=O)N3CCC(C)CC3)nn2CC1(C)C(=O)NC1CCCC1 (centres undefined),x,x,15,100
O=c1c2sc3ccccc3c2n(Cc2cccc(C(F)(F)F)c2)c(=O)n1-c1ccccc1,88,90,-7,104
O=C1c2ccccc2C(=O)N1CCCN1CCN(c2nccc(C(F)(F)F)n2)CC1,95,91,-21,102
COc1ccc(Cl)cc1NC(=O)C(C)Oc1ccc(NC(=O)c2ccco2)cc1 (centres undefined),85,83,-10,x
COc1ccc(/C=C2\SC(=S)N(CCCCCC(=O)Nc3ccccc3C(=O)O)C2=O)cc1,x,x,-18,101
CN1C(=O)c2ccccc2C(C(=O)NC2CC2)C1c1cn(C)c2ccccc12 (centres undefined),84,93,x,101
COc1ccc(-c2nc(C)c(CCNS(=O)(=O)c3cc(Cl)ccc3Cl)s2)cc1,62,99,x,103
Cc1cccc2nc(-c3ccc(N(C)C)cc3)c(Nc3ccc4c(c3)OCO4)n12,103,89,-31,106
COc1ccc(C(=O)CC(=O)c2ccccc2O)cc1,87,81,-23,108
Cc1nn2c(C)c(C(=O)N3CCN(c4ccccc4F)CC3)cnc2c1-c1ccc(F)cc1,101,89,x,103
CCNc1nc(NC(C)C)nc(OCCNS(=O)(=O)c2ccc(C)cc2)n1,x,x,-23,102
Cc1cc(OCC(=O)NC2CCCCCC2)no1,90,94,-11,x
CCOc1ccccc1NC(=O)Cn1c2ccccc2c2ncn(Cc3ccc(OC)cc3)c(=O)c21,x,x,-24,102
O=C(NC1CCCCC1)c1cc(-c2ccc(Cl)cc2)n[nH]1,92,93,-17,103
C=CCn1c(Cc2ccc(OC)c(Cl)c2)n[nH]c1=S,106,105,6,103
Cc1[nH]c(=O)[nH]c(=O)c1/C=N\NC(=O)c1cc2ccccc2o1,109,95,-50,108
Cc1oc2c(F)c(F)c(F)c(F)c2c1C(=O)NC1CCCCCC1,74,92,-26,x
CCc1ccc(C(=O)c2cn(CC(=O)Nc3cc(OC)ccc3OC)c3nc(C)ccc3c2=O)cc1,108,102,x,117
O=C(C1CCC(=O)N1S(=O)(=O)c1ccccc1)N1CCCCC1 (centres undefined),x,x,-1,106
Cc1cc(-c2noc(COc3c(F)c(F)cc(F)c3F)n2)c2ccccc2n1,97,92,2,103
CCC1CCCCN1C(=O)Cn1c(=O)n(-c2cc(F)ccc2F)c(=O)c2sccc21 (centres undefined),95,94,x,103
C/C(=N\NC1=NCCCN1)c1ccccc1,91,91,-35,107
CCN1C(=O)S/C(=C\C(=O)O)C1=O,105,90,-23,101
Clc1cccc(-n2c(SCC3CC3)nnc2C2CC2)c1,98,96,13,103
CN=C1S/C(=C\c2cn(CC(=O)O)c3ccccc23)C(=O)N1C,89,86,x,114
COCCn1ccc2c(OCC(=O)Nc3cccc(OC)c3)cccc2c1=O,98,91,x,98
COc1ccc(/C=C2\C(=O)N(c3ccc(Cl)c(C(=O)O)c3)N=C2C)cc1Br,x,x,-22,100
Cc1cccc(N2CCN(C(=O)c3cn(CC(C)C)c(=O)c4c3c3ccccc3n4C)CC2)c1C,104,95,-21,103
CSc1cc(C(C)(C)C)nn1S(=O)(=O)c1ccc(Cl)cc1,84,87,-19,97
Cc1ccc2c(c1)-c1c(cnn1CC(=O)N1CCc3ccccc31)CO2,104,95,-7,105
COc1ccc(-c2nc3ccccc3s2)cc1NC(=O)COc1cccc(C)c1,91,89,-30,109
CC1CSc2ccc(S(=O)(=O)N3CCC(CN4CCc5ccccc5C4)CC3)cc2NC1=O (centres undefined),x,x,4,107
COc1cccc2cc(C(=O)NCCN(C)C)c(=O)oc12,104,84,-62,98
CC(C)NCc1ccc(-c2ccc(Cl)cc2)o1,x,x,-8,111
Cc1ccc(NC(=O)Cn2c(SCc3cccc(C(F)(F)F)c3)nc3cccnc32)cc1C,94,77,x,102
COc1ccc(-c2csc(-c3nc(-c4ccc(Br)cc4)cs3)n2)cc1F,x,x,-32,100
CSc1nc2ccc(NC(=O)c3ccc(S(=O)(=O)N4CCc5ccccc54)cc3)cc2s1,x,x,-6,113
CC1CC(C)CN(C(=O)C2=COCCO2)C1 (centres undefined),79,90,-19,x
COc1ccccc1NC(=O)C1Sc2nnc(-c3ccccc3)n2NC12CCCC2 (centres undefined),x,x,-14,103
CN(CCNC(=O)c1cc(-c2cccnc2)nc2ccc(Br)cc12)C1CCCCC1,x,x,-32,119
CCOc1ccc(N(Cc2nc3nc(C)cc(C)n3n2)C(=O)CC(C)C)cc1,x,x,-1,107
Cn1c(/N=C(\N)c2ccccc2)nc2ccccc21,90,71,-14,101
O=C(CSCC(=O)c1ccc(-c2ccccc2)cc1)Nc1ccc2ccccc2c1,101,120,7,x
CC(=O)Nc1nnc(SCc2cc(=O)n3ccsc3n2)s1,92,85,-25,101
CCC(=O)Nc1nc2ccc(NC(=O)Nc3cc(Cl)ccc3OC)cc2s1,x,x,-9,97
CC(=O)N1c2ccc(S(=O)(=O)N3CCCC3)cc2CC1C(=O)N1CCc2ccccc2C1 (centres undefined),x,x,-9,103
